eIF4H FP inh = human eIF4H binding inhibitors, primary screen, translation initiation inhibitor project, biochemical, uHTS, fluorescence polarization. eIF4H fluorescence polarization binding assay. 290,000 compounds, 0.94% hits. Eukaryotic translation initiation factor 4H (Homo sapiens), Q15056. inhibition, % at 35 µM. AID 2012, 2009;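 active = 50% or more with normal probe brightness, or confirmed in later tests; about a fifth of its hits are not listed in these tables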;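 also: calls also rest on retests at 20 µM and on dose response follow-up; 0% = protein and probe with vehicle and 100% = probe without protein; strong numbers were not always called active; many hits fall short of the cut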
PABP FP inh = PABP poly(A) RNA binding inhibitors, primary screen, biochemical, fluorescence polarization, uHTS; 290,000 compounds, 1% hits; AID 2014, 2009; inhibition, % at 35 µM; Polyadenylate-binding protein 1 (Homo sapiens), P11940;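 active = 50% or more with normal probe brightness, or confirmed in later tests; about a fifth of its hits are not listed in these tables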;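 also: calls also rest on retests at 20 µM and on dose response follow-up; controls were probe without protein and protein plus probe with vehicle; some compounds called inactive have numbers as strong as hits; many hits fall short of the cut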
Target sequence (P11940 whole entry, looked up): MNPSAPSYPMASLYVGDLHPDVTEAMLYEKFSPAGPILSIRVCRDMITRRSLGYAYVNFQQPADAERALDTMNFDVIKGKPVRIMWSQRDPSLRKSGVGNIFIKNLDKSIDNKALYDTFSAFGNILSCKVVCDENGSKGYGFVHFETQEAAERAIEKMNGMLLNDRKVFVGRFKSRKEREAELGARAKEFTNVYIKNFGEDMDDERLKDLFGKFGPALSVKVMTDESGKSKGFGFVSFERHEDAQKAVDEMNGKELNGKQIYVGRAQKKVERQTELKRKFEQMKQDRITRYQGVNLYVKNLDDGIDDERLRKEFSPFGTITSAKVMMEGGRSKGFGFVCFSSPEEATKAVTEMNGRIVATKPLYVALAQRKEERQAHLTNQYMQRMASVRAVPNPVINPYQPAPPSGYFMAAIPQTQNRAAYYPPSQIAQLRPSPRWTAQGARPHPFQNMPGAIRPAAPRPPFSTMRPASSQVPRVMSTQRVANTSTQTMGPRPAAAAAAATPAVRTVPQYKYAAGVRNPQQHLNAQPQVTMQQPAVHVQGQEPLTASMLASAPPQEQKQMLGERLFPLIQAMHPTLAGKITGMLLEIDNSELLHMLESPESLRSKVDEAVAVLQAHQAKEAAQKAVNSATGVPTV
UUG fidelity = modulators of yeast start codon fidelity, primary screen, whole organism, S. cerevisiae, single point, plate reader; S. cerevisiae UUG-firefly luciferase reporter, luminescence/redox ratio; activity score, % at 18.7 µM; 350,000 compounds, 0.13% hits;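 active = replicate mean at a twofold rise or more, about +100% in these data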;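 also: firefly luciferase made from a UUG start codon reports start codon fidelity; reporter light over untreated wells divided by growth signal over untreated wells; some hits fall short of that in this replicate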
Rce1 inhib = yeast Rce1p protease inhibitors, primary screen, biochemical, fluorescence, cell-free homogeneous; yeast membranes, quenched prenylated peptide cleavage fluorescence; calls only; AID 2563, 2010; 290,000 compounds, 0.27% hits;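 active = fall in fluorescence gain of 50% or more versus controls, with final raw signal at or below 3038400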;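 also: plate controls were neutral control wells for no effect and wells lacking membranes for full effect; tested at 10 µM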
CSC inhib = cancer stem cell viability inhibitors, primary screen, luminescence; cancer stem cell-like cells viability; inhibition, % at 7.5 µM; 300,000 compounds, 1.1% hits; AID 2717, 2010;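 active = mean at 75% or more and at least half the replicates too; tested in HMLE shEcad cells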;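 also: 0% = median of negative and 100% = median of positive control wells; the first replicate is given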
HIV Env fusion = inhibitors of HIV-1 Env-driven cell-cell fusion, primary screen, HeLa-JRFL effector, CEM21 target cells, luciferase; inhibition, % at 12.3 µM; 360,000 compounds, 1.1% hits;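 active = mean replicate inhibition score of at least 50 and every replicate individually at or above 50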;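 also: 0% = plate neutral controls and 100% = maraviroc near 300 nM; one replicate is shown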
MT1-MMP act inh = blockers of MT1-MMP proenzyme processing, primary screen, HT1080 RFP-PRO-GFP cells, GFP/RFP fluorescence; Matrix metalloproteinase-14 (Homo sapiens), P50281; GFP/RFP ratio fluorescence, overnight; percent of plate control window, DMSO zero; GFP/RFP ratio change, % at 20 µM; 360,000 compounds, 0.061% hits;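 active = GFP/RFP ratio change of at least 30% with cell ATP level not reduced by more than half and red fluorescence within 50% of control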; also: strong numbers were not always called active
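Assay system – RFP-PRO-GFP reporter HT1080 cells · Compound dosing – single dose of 20 µM compound, 1% DMSO final · Incubation – overnight compound exposure at 37 °C · Measure – GFP/RFP fluorescence ratio · Benchmarks – DMSO wells and RFP-L50D-GFP cells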
MT1-MMP act inh RFP = further read-out of MT1-MMP act inh, marked with its call; RFP signal change, %; measured here: RFP expression control read;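 0 = vehicle wells; hits needed this value within 50% of zero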
* hit, by the source's call; i = inactive; x = not tested or not shown. The list is partial. The share of hits here may be higher or lower than overall.

Screens in order: eIF4H FP inh | PABP FP inh | UUG fidelity | Rce1 inhib | CSC inhib | HIV Env fusion | MT1-MMP act inh | MT1-MMP act inh RFP
> CS(=O)Cc1cc(Sc2ccccc2)nc(-c2cccnc2)n1 (stereo not drawn)
  4.0 | 18.3 | -4.0 | i | -13.9 | 10.4 | -5.2 | 0.2
> CCn1cc(/C=C(\NC(=O)c2cc(OC)c(OC)c(OC)c2)C(=O)NCCN2CCOCC2)c2ccccc21
  -19.9 | 1.8 | x | i | 6.1 | -52.6 | -3.9 | 2.6
> Cc1cc(C)c2[nH]c(=O)c(CN(Cc3ccc4c(c3)OCO4)Cc3nnnn3C3CCCC3)cc2c1
  -3.3 | 3.8 | -1.3 | i | 11.2 | 5.1 | -12.4 | -9.3
> CN(CC(=O)Nc1c(Cl)cccc1Cl)C(=O)c1cc(-c2cccs2)nn1-c1ccccc1
  x | x | -12.3 | i | x | x | 5.4 | -3.3
> O=C(NCc1ccc2c(c1)OCO2)C1COc2ccccc2O1 (stereo not drawn)
  -9.1 | -14.5 | 8.4 | i | 6.9 | -15.5 | -8.2 | -10.3
> COc1cc(OC)cc(C(=O)NC(=S)NCc2ccco2)c1
  -5.7 | 3.0 | x | i | -1.1 | x | -0.6 | 1.8
> Cc1ccc2[nH]c3c(c2c1)CN(C(=O)CN1CCSCC1)CC3
  52.6* | 93.7* | 1.4 | i | x | x | x | x
> CC(CC(=O)Nc1cc([N+](=O)[O-])ccc1Cl)c1ccccc1 (stereo not drawn)
  -4.8 | -5.0 | -15.4 | i | 1.4 | x | -2.2 | -6.9
> COc1ccc(S(=O)(=O)N2CCC(C(=O)N3CCCCCC3)CC2)cc1
  1.0 | -0.3 | -4.6 | i | -8.6 | x | 4.6 | 1.1
> COc1ccccc1C(=O)Nc1cc(C)on1
  -6.0 | -1.8 | 8.7 | x | -6.5 | -18.9 | 0.1 | 0.2
> CCOc1cc(/C=N/NC(=O)c2ccc(NC(=O)C3CC3)cc2)ccc1O
  -8.9 | -8.1 | 1.8 | x | -4.5 | -40.6 | 3.2 | 4.5
> CCc1ccc(CN(C)C(=O)c2cc(COc3cccc(C(F)(F)F)c3)on2)nc1
  -5.2 | -8.0 | -17.3 | i | -12.6 | 20.5 | 2.3 | -1.8
> CS(=O)(=O)c1ccc(C(=O)Nc2ccc(N3CCOCC3)cc2)c(Cl)c1
  -8.4 | -6.6 | -6.8 | i | -4.4 | 7.1 | 1.6 | -0.1
> CC1(C)CC(=O)C(C=NCC2CCCO2)=C(O)C1 (stereo not drawn)
  0.6 | -6.0 | -0.7 | x | 8.4 | -19.5 | 3.0 | 2.5
> Cc1ccc([N+](=O)[O-])cc1NC(=O)c1ccoc1C
  8.5 | -0.2 | -5.0 | i | 2.3 | -43.9 | 2.2 | 3.5
> O=C(COc1ccccc1Br)c1ccc(O)cc1O
  1.4 | 27.2 | -13.7 | i | 16.0 | x | -0.2 | -0.6
> CC(C)(Oc1ccc(Cl)cc1)C(=O)Nc1ccc2oc(=O)ccc2c1
  -3.3 | 0.0 | -12.5 | i | -7.0 | 15.8 | 0.3 | 0.9
> CC(C)C[C@H]1CNC(=S)N1CC1CCCN1C[C@H](CC(C)C)N1C[C@H](Cc2ccc(O)cc2)N(CC2CCCCC2)C1=S (stereo partly drawn)
  x | x | -15.8 | x | x | 2.7 | 0.6 | -6.3
> CC(=O)/C(=C/c1ccc(N(C)C)cc1)C(=O)c1ccccc1
  0.1 | 22.7 | x | i | -2.1 | 2.6 | -5.6 | 0.1
> CCCNc1ncccc1C(N)=O
  -3.7 | -14.4 | -11.0 | i | -14.2 | x | -2.6 | -5.1
> CC(C)CCSc1cc(NCCO)c([N+](=O)[O-])c2nonc12
  3.2 | 1.2 | 11.2 | i | 19.6 | 5.3 | -5.6 | -10.1
> CCOC(=O)c1ccc(CNC(=O)c2cc(COc3ccccc3SC)on2)o1
  -15.4 | 9.7 | 2.1 | i | 18.7 | -138.1 | 0.2 | -0.1
> CC1CC(O)C(C)CN1 (stereo not drawn)
  -12.4 | -4.7 | 0.9 | i | x | 5.2 | 0.5 | 4.9
> C=CCc1cccc2cc(C(=O)NC3CCCC3)c(=O)oc12
  -1.0 | 7.8 | 13.8 | i | -1.9 | 8.4 | -2.1 | -3.9
> CCOC(=O)NC(=O)c1cn(Nc2ccccc2)c(=O)[nH]c1=O
  6.0 | 3.8 | x | i | -0.6 | 6.6 | -0.6 | -2.3
> COc1cc(NC(=O)CSc2nc3ccccc3cc2C)c(C(=O)O)cc1OC
  -5.8 | -6.0 | x | i | -9.1 | 19.8 | 2.3 | 2.8
> CCOc1ccccc1NC(=O)C1CCN(C(=O)Cc2ccccc2)CC1
  3.4 | -2.0 | x | i | -6.9 | -3.5 | 0.1 | 0.6
> O=C(O)c1ccccc1C(=O)NCc1ccc(F)cc1
  0.7 | 9.2 | -16.7 | i | 8.1 | -14.6 | 1.4 | 4.1
> CC12CCC(C(=O)N(Cc3ccccc3)Cc3ccccc3)(OC1=O)C2(C)C (stereo not drawn)
  8.3 | -7.3 | -2.4 | i | -7.4 | x | -6.3 | -9.2
> C=C1CC2C=C(NC(C)=O)CC(C1)C2 (stereo not drawn)
  -10.0 | -13.9 | x | i | -5.3 | x | 1.3 | 1.6

Ordered by the number under MT1-MMP act inh (descending): seven from the list above
Compound | UUG fidelity | Rce1 inhib | HIV Env fusion | MT1-MMP act inh | MT1-MMP act inh RFP
CC1(C)CC(=O)C(C=NCC2CCCO2)=C(O)C1 (stereo not drawn) | -0.7 | x | -19.5 | 3.0 | 2.5
CCc1ccc(CN(C)C(=O)c2cc(COc3cccc(C(F)(F)F)c3)on2)nc1 | -17.3 | i | 20.5 | 2.3 | -1.8
CCOc1ccccc1NC(=O)C1CCN(C(=O)Cc2ccccc2)CC1 | x | i | -3.5 | 0.1 | 0.6
CCOC(=O)NC(=O)c1cn(Nc2ccccc2)c(=O)[nH]c1=O | x | i | 6.6 | -0.6 | -2.3
CC(CC(=O)Nc1cc([N+](=O)[O-])ccc1Cl)c1ccccc1 (stereo not drawn) | -15.4 | i | x | -2.2 | -6.9
CC(=O)/C(=C/c1ccc(N(C)C)cc1)C(=O)c1ccccc1 | x | i | 2.6 | -5.6 | 0.1
Cc1cc(C)c2[nH]c(=O)c(CN(Cc3ccc4c(c3)OCO4)Cc3nnnn3C3CCCC3)cc2c1 | -1.3 | i | 5.1 | -12.4 | -9.3

The main list resumes with the two entries that preceded the break.
Screens in order: eIF4H FP inh | PABP FP inh | UUG fidelity | Rce1 inhib | CSC inhib | HIV Env fusion | MT1-MMP act inh | MT1-MMP act inh RFP
> CC12CCC(C(=O)N(Cc3ccccc3)Cc3ccccc3)(OC1=O)C2(C)C (stereo not drawn)
  8.3 | -7.3 | -2.4 | i | -7.4 | x | -6.3 | -9.2
> C=C1CC2C=C(NC(C)=O)CC(C1)C2 (stereo not drawn)
  -10.0 | -13.9 | x | i | -5.3 | x | 1.3 | 1.6
> CCN(CC)C(=O)CSc1nc2c(sc(=S)n2-c2ccccc2)c(=O)n1-c1ccc(OC)cc1OC
  -1.3 | 5.2 | -7.7 | i | x | 10.4 | -4.9 | -6.7
> Cc1nnc(SCc2ccccc2)n(N)c1=O
  -4.0 | 31.6 | -9.9 | i | -5.4 | 12.4 | 3.3 | 1.5
> C=CCN1CC(C(=O)N2CCC(Cc3ccc(Cl)cc3)(C(=O)OCC)CC2)CC1=O (stereo not drawn)
  4.4 | 0.5 | -3.8 | i | -10.9 | -6.7 | 0.5 | -5.3
> O=C(Cn1c(=O)n(CCc2c[nH]c3ccccc23)c(=O)c2cccnc21)Nc1ccccc1F
  1.4 | 7.4 | -26.8 | i | 5.1 | -10.9 | -2.3 | -7.5
> O=C(Nc1ccccc1)Nc1cc(Cl)cc(Cl)c1
  -0.2 | -1.6 | -12.6 | i | 80.9* | x | -32.8 | -40.8
> Cc1ccc([C@H]2C[C@@H](n3cc(C4CC4)nn3)[C@H](O)CN2CC2CCCCC2)cc1
  x | x | -8.3 | x | x | 10.6 | -4.5 | -6.1
> O=C(CSc1ncn[nH]1)Nc1nc(-c2cccc([N+](=O)[O-])c2)cs1
  -2.1 | 2.3 | -8.2 | i | 23.2 | -40.4 | 2.2 | -7.3
> COc1ccccc1C(=O)NC(C)C(c1cccs1)N1CCOCC1 (stereo not drawn)
  0.0 | 1.7 | -13.9 | i | -14.4 | x | -2.8 | 1.0
> COCc1cc(C)nc(SCC(=O)NCc2ccco2)c1C#N
  -7.1 | 5.5 | 2.3 | i | -0.6 | -43.1 | 0.7 | 1.3
> Cc1cc(C)cc(-n2nnnc2SCC(=O)Nc2cccc(NC(=O)c3ccco3)c2)c1
  -4.8 | -3.3 | 17.3 | i | -2.5 | x | 3.4 | -4.2
> COc1cc(/C=N/NC(=S)Nc2cccc(C(=O)O)c2)ccc1O
  -3.1 | 3.8 | -32.5 | i | 16.0 | 51.1 | 0.3 | 5.6
> CCCCNC(=O)c1nc(C2CCN(S(=O)(=O)c3csc(C(=O)O)c3)CC2)oc1-c1ccccc1
  x | x | 6.5 | x | x | 3.1 | -0.9 | 0.4
> Cn1c(=O)c2c(nc(N/N=C3\CCCc4ccccc43)n2Cc2ccc(F)cc2)n(C)c1=O
  -2.9 | -3.4 | x | i | -2.6 | 3.6 | -4.4 | -4.3
> O=S(=O)(c1ccc2[nH]c3c(c2c1)CCCC3)N1CCCCC1
  -9.3 | 6.2 | -2.8 | i | 12.8 | 19.9 | -4.2 | -6.0
> CCn1c(COc2cccc(OC)c2)nnc1SCC(=O)NCC1CCCO1 (stereo not drawn)
  -4.2 | -7.5 | x | i | 5.1 | -2.5 | -1.5 | -0.1
> NC(=O)CC(NC(=O)OCc1ccccc1)C(=O)O (stereo not drawn)
  0.1 | 6.2 | -5.5 | i | -2.6 | x | 0.3 | 2.7
> O=C(OCC#CCSc1nc2ccccc2o1)c1ccco1
  4.9 | -4.4 | -7.8 | i | x | x | 3.3 | -1.4
> CCC1C=C(c2ccccc2)C=CN=C1N(CC)CC (stereo not drawn)
  0.4 | -1.7 | -12.4 | i | 1.0 | x | -118.8 | -69.2
> CCNC(=S)N1CCN=C1Nc1nc(C)cc(C)n1
  -11.7 | -7.7 | x | i | -4.8 | 3.5 | -2.8 | 2.4
> N#Cc1c(-c2cccs2)cc(-c2cccnc2)nc1N
  4.5 | 3.8 | -18.0 | i | -7.6 | -67.2 | -2.1 | -1.2
> CN(C(=S)Nc1ccccc1)c1ccccc1
  -7.4 | 12.2 | -1.6 | i | -9.3 | -11.4 | 3.6 | 2.8
> CC1(c2ccc(NC(=O)c3ccccc3F)cc2)CC1(Cl)Cl (stereo not drawn)
  9.6 | 13.7 | -8.3 | i | 43.2 | -69.5 | -6.0 | -2.5
> COc1ccccc1CCc1nnc(CCC(=O)NC(C)Cc2cccc(C)n2)o1 (stereo not drawn)
  0.8 | -12.3 | -17.1 | i | x | -14.0 | 5.0 | 4.0
> Cc1cccc(C)c1NC(=O)CS(=O)CC(=O)N1CCN(c2ccccc2)CC1 (stereo not drawn)
  -13.2 | 0.7 | -18.6 | i | -14.0 | -19.8 | -0.7 | 0.2
> Cc1ccc(-n2ncc(C#N)c2/N=C/N2CCOCC2)cc1
  -1.7 | -1.1 | -18.1 | i | -7.3 | -118.4 | 5.0 | -0.7
> COc1c(C)cc(C(=O)C2CCCN(C(=O)c3ccc4cc[nH]c4c3)C2)cc1C (stereo not drawn)
  12.4 | -8.8 | x | i | 19.6 | 1.0 | -1.7 | -6.8
> CN(C)/C=C1\C(=O)N(c2ccc(Cl)cc2)CS1(=O)=O
  5.2 | 3.5 | -10.6 | i | -11.5 | -109.7 | 3.1 | 2.8
> CC(/C=N/NC(=O)CSc1ccccn1)=C\c1ccc(C(C)C)cc1
  7.6 | -4.0 | x | i | -16.3 | x | 2.1 | -2.0
